MARV entry inh = qHTS for inhibitors of binding or entry into cells for Marburg Virus. Marburg virus pseudotyped entry inhibition, cell reporter; control for the full effect not named in the record; about a third of the inactives were read at about 46 µM. Potency, µM (doses to about 37.8 µM), for inactives: top-dose activity change, negative = inhibition, most hits filed as inhibitors. hit rate 1.8% among 300,000. AID 540276, 2011; active = well fitted inhibition curve with a large enough effect; inconclusive = small, poorly fitted or top-dose-only effect, or effect the other way; inactive = flat fitted curve, though single readings scatter; tested in HEK293 cells; about a fifth of its hits are not listed in these tables; also: % is scaled to controls: 0 for no effect and ±100 for the full control effect; luciferase read-out
StopGo reporter = High Throughput Screening for Foot and Mouth Disease Virus Antivirals; human cells with a luciferase reporter of 2A StopGo recoding; control for the full effect not named in the record; Potency, µM (titrated, usually from 57.9 µM), for the others: at the highest dose signal change, negative = less light; hit rate 1.2% among 410,000; AID 1159524, 2015; active = well fitted falling curve with a large enough effect; inconclusive = small, poorly fitted or top-dose-only effect; inactive = no such curve, though single readings can be large or run the other way; tested in HEK293T cells; also: % is scaled to controls: 0 for no effect and ±100 for the full control effect; nearly all actives have a fitted effect of over 45% in size; luciferase light after 4 h
RE007 growth inh = qHTS Assay for Inhibitors of the HIV-1 protein Vpr. S. pombe RE007 Vpr strain, BacTiter-Glo ATP luminescence, 24 h; control for the full effect not named in the record. Potency, µM (titrated, usually from 92.2 µM), without a hit: top-dose activity change, negative = less growth. hit rate 0.21% among 360,000; active = well fitted falling curve with a large enough effect; inconclusive = small, poorly fitted or top-dose-only effect; inactive = no such curve, though single readings can be large or run the other way;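 also: % is scaled to controls: 0 for no effect and ±100 for the full control effect; nearly all actives have a fitted effect of over 50% in size; the assay follows cell death caused by Vpr and the record does not say whether a fall means rescue or toxicity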
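Fission yeast strain RE007, carrying one chromosomally integrated HIV-1 vpr copy, was seeded at OD 0.01 in PMG+AL medium with 23 nL pinned compound. After 24 h at 30 °C and 99% humidity, viability was read by BacTiter-Glo luminescence.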
Cruzain Triton = qHTS Assay for Promiscuous and Specific Inhibitors of Cruzain (with detergent) | Cruzipain (Trypanosoma cruzi), P25779 | purified cruzain, Z-FR-AMC fluorescence, 0.01% Triton | Potency, µM, inactives show max response, negative = inhibition, actives largely listed as inhibitors | hit rate 0.43% among 200,000 | AID 1478, 2009; active = well fitted curve in the direction sought with a large enough effect; inconclusive = small, poorly fitted or top-dose-only effect, or another doubt; inactive = no such curve, though single readings can be large; an effect the other way counts as inactive or inconclusive;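 also: plate controls were neutral wells for no effect and buffer without enzyme for full effect; nearly all actives have a fitted effect of over 40% in size; top concentration of the series not given in the record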
Target sequence (P25779 123-467 limits assumed): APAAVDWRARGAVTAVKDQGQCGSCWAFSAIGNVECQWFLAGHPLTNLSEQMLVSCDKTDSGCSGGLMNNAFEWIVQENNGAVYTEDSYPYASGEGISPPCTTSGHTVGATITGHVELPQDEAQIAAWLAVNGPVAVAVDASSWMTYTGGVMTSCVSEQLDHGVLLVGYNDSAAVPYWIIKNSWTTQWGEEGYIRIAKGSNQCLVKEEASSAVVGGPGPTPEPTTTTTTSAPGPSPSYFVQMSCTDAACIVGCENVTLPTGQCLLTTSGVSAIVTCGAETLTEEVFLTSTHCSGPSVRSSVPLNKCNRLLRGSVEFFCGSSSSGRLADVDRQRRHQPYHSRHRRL
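Sodium acetate buffer (100 mM, pH 5.5) containing 5 mM DTT and 0.01% Triton X-100 hosted 1.5 nM cruzain and test compound for 15 min at room temperature. Cleavage of 2 uM Z-FR-AMC was then tracked by fluorescence.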
SARS PLP yeast = qHTS of Yeast-based Assay for SARS-CoV PLP. hit rate 0.19% among 330,000. S. cerevisiae expressing SARS-CoV PLpro, growth rescue; control for the full effect not named in the record. Potency, µM (top dose mostly 32.9 µM), without a hit: top-dose activity, positive = growth rescue; also: 0% is about no effect; nearly all actives have a fitted effect of over 55% in size; growth read by luminescence after 48 h
Cruzain inh noDet = qHTS Assay for Promiscuous and Specific Inhibitors of Cruzain (without detergent) | Cruzipain (Trypanosoma cruzi), P25779 | AID 1476, 2009 | Potency, µM, for inactives: max response, negative = inhibition, actives largely listed as inhibitors | hit rate 2.3% among 200,000 | purified cruzain, Z-FR-AMC fluorescence, no detergent; active = well fitted curve in the direction sought with a large enough effect; inconclusive = small, poorly fitted or top-dose-only effect, or another doubt; inactive = no such curve, though single readings can be large; an effect the other way counts as inactive or inconclusive;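 also: plate controls were enzyme without inhibitor for no effect and buffer without enzyme for full effect; nearly all actives have a fitted effect of over 40% in size; top concentration of the series not given in the record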
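Purified cruzain at 1.5 nM, pre-incubated 15 min with compound at room temperature in 100 mM sodium acetate pH 5.5, 5 mM DTT, 0.00005% Triton X-100. Reaction started with 2 uM Z-FR-AMC; AMC fluorescence increase over 60 s gives rate.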
NS1 inh = qHTS Assay for Inhibitors of Influenza NS1 Protein Function; S. cerevisiae slowed by influenza A NS1, growth recovery by OD600; Potency, µM (doses to about 46.1 µM), inactives show top-dose activity, positive = more growth; hit rate 0.4% among 270,000; AID 2326, 2010; also: actives are rising curves; nearly all actives have a fitted effect of over 50% in size
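Read-out: OD600 growth recovery of NS1-expressing budding yeast. Cells grown overnight at 30C in -URA glucose medium, washed, resuspended and diluted 1:100 in 2% galactose assay medium, pH 6.0. Same strain lacking NS1 served as positive control.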
Lassa entry inh = qHTS for Inhibitors of binding or entry into cells for Lassa Virus | hit rate 1.2% among 300,000 | Potency, µM (doses to about 37.9 µM), inactives show top-dose activity change, negative = inhibition, actives largely listed as inhibitors | AID 540256, 2011 | Lassa virus pseudotype entry inhibition, cell reporter; control for the full effect not named in the record; active means well fitted inhibition curve with a large enough effect; inconclusive means small, poorly fitted or top-dose-only effect, or effect the other way; inactive means flat fitted curve, though single readings scatter; tested in HEK293 cells; also: % is scaled to controls: 0 for no effect and ±100 for the full control effect; nearly all actives have a fitted effect of over 50% in size; luciferase read-out
* = called active by the depositor; ? = inconclusive; / = no result given; & = joins results of further samples; [ ] = remark or other dose. Unless noted, calls follow the shape of the dose curve; as a rule, active means well fitted rising curve with a large enough effect; inconclusive means small, poorly fitted or top-dose-only effect; inactive means no such curve, though single readings can be large or run the other way. Potency is read from the fitted curve at half-maximal effect.

SMILES	MARV entry inh	StopGo reporter	RE007 growth inh	Cruzain Triton	SARS PLP yeast	Cruzain inh noDet	NS1 inh	Lassa entry inh
Cc1ccc(CNC(=O)C2CCC(=O)N2Cc2ccc(C)cc2)cc1 (stereo not given)	/	-16%	-11%	/	1%	/	4%	/
Cc1ccc(Cn2nnc3c(=O)[nH]c(C4CCN(S(=O)(=O)Cc5ccccc5)CC4)nc32)cc1	?	20%	21%	/	4%	/	16%	11µM*
Cc1cccc(N2C(=O)CC(Sc3nc(-c4ccccc4)c4cc(Cl)ccc4n3)C2=O)c1 (stereo not given)	-16%	-3%	1%	4.0%	-9%	-17%	?	-25%
O=C1NC(=O)N(c2ccc3c(c2)OCO3)C(=O)/C1=C\c1ccc(-c2ccccc2C(=O)O)o1	16%[46.1 µM]	0%	-2%	/	1%	/	7%	2%
COc1ccc(/C=N/NC(=O)CCn2cnc3ccccc32)cc1	0%[14.2 µM]	8%	-24%	/	0%	/	4%	-26%
COc1ccc(N(C(=O)c2cnsn2)C(C(=O)NC2CCCCC2)c2ccncc2)cc1 (stereo not given)	15%	9%	-2%	-2.4%	-1%	9%	3%	7%
COc1ccccc1NC(=O)CSc1n[nH]c(-c2ccccn2)n1	?	-23%	2%	/	0%	/	2%	?
O=C(Nc1cccc(NC(=O)c2cccs2)c1)c1ccc(Br)cc1	-17%[46.1 µM]	-2%	-6%	/	-4%	/	7%	-4%[46.1 µM]
N#CCCN(C(=S)NC(=O)c1cccs1)c1ccccc1F	18%	-6%	-3%	/	-11%	/	/	?
CC(=O)c1ccc(NC(=O)CSc2nnc(C3CC3)n2C)cc1	2%[46.1 µM]	18%	4%	/	-5%	/	2%	?
CC(C)(C)n1nc(-c2ccc(F)cc2)c2c(N)ncnc21	-2%	?	15%	-3.4%	-26%	-2%	15%	-28%
Cc1cccc(NC(=O)CSCC(=O)N(C)CCOc2ccc(Cl)cc2)c1	-8%	-10%	-2%	/	-1%	/	/	3%
CC(=O)C1CCC2C3CC(O)C4=CC(=O)CCC4(C)C3C(=O)CC12C (stereo not given)	?	-17%	9%	/	/	/	/	16%[46.1 µM]
O=C(O)c1ccc(N2N=C(c3ccccc3)CC2c2ccccc2)cc1 (stereo not given)	/	?	13%	/	-22%	/	-36%	/
Nc1nc2ccccc2n1/N=C/c1ccc([N+](=O)[O-])s1	?	-1%	-13%	-5.9%	-53%	-20%	-20%	?
CC(NC(=O)CSC(=S)N1CCCC1)c1ccc(S(N)(=O)=O)cc1 (stereo not given)	18%	-4%	-15%	/	5%	/	/	11%
COc1cccc(NC(=O)CN2C(=O)NC3(CCCCCC3)C2=O)c1	-1%[46.1 µM]	-8%	18%	/	-3%	/	/	-20%[46.1 µM]
O=C(NCc1ccccc1)C(=O)NCC(c1cccnc1)N1CCN(c2ccccc2)CC1 (stereo not given)	/	?	/	-9.9%	/	-9%	/	-17%[46.1 µM]
COc1ccc2oc(-c3ccccc3[N+](=O)[O-])cc(=O)c2c1	-30%[46.1 µM]	17%	-5%	/	1%	/	-6%	/
COc1ccc(C2=Nc3ccc(C)cc3NC(c3ccc(Cl)cc3)=N2)cc1	11%[46.1 µM]	8%	/	-1.3%	/	?	/	?
CC(C)N1CCc2c(sc(NC(=O)c3ccc(S(=O)(=O)N4CCc5ccccc54)cc3)c2C(N)=O)C1	/	?	8%	/	0%	/	29%	/
COC(=O)C1CCN(C(=O)Cc2ccc(C)cc2)CC1	?	41%[activator]	-5%	4.5%	4%	-8%	7%	24%
O=C(CSc1ccc(-c2cccs2)nn1)c1cccs1	15%[46.1 µM]	28%	?	/	-2%	/	/	18%[46.1 µM]
O=C(NCC12CC3CC(CC(C3)C1)C2)c1cc2nc(-c3ccc(Cl)cc3)cc(C(F)(F)F)n2n1	2%[46.1 µM]	-6%	/	-0.9%	/	-2%	/	3%[46.1 µM]
CCOC(=O)CSc1nnc(-c2ccccc2NC(=O)c2ccccc2)o1	3%	/	-3%	6.0%	3%	4%	4%	9%
Cn1nc(C(=O)NC(C)(C)C)c2ccccc21	-20%	-6%	-5%	0.2%	-8%	-8%	-3%	?
CCO[C@@H]1OC(C(N)=O)=C[C@H](c2ccccc2)[C@H]1CCCO	/	-19%	-5%	/	-1%	/	4%	/
CCOC(=O)/C(=C\c1ccccc1)C(=O)c1cc(C(C)=O)c(Nc2ccccc2)s1	?	14µM*	-3%	-3.3%	2%	-27%	3%	?
CC(C)(C)c1ccc(S(=O)(=O)N2CCCC2C(=O)NC2=NCCS2)cc1 (stereo not given)	-16%	-1%	-8%	3.1%	-13%	13%	-70%	0%
CCCC(=O)CN1C(=O)C2(OCCO2)c2ccccc21	?	-10%	-19%	2.2%	0%	-5%	-1%	1%
Cc1ccccc1NC(=S)NC1CC2CCC(C1)N2Cc1ccco1 (stereo not given)	-23%	-1%	4%	1.8%	-4%	-7%	-6%	0%
COC(=O)c1ccc(-n2nnc(-c3nc(-c4ccccc4Cl)no3)c2C)cc1	/	0%	/	3.6%	/	-12%	/	-2%[46.1 µM]
Cc1nn(-c2ccccc2)c2nc(Cl)c(C(=O)O)cc12	5%	-6%	0%	-3.2%	22%	-3%	12%	3%
COc1ccccc1C(=O)NCCC(=O)N1CC(=O)Nc2ccccc21	?	-17%	-10%	2.1%	3%	-10%	-6%	-12%
COc1ccc(CNc2ccccn2)c(O)c1	13%	34%[activator]	-11%	/	18%	/	38%	-9%
O=C(COc1c(F)c(F)c(C(F)(F)F)c(F)c1F)Nc1ccc(N2CCOCC2)c(Cl)c1	-3%	-22%	-28%	-13%	-34%	11%	-25%	-21%
O=C(CSc1nnc(C2CC2)n1Cc1ccccc1)c1cc2ccccc2o1	?	18%	3%	-3.9%	-5%	16µM*	8%	?
CC(C)CCNC(=S)Nc1ccccc1F	0%	27%	1%	-0.6%	?	2%	5%	-17%
O=C(Nc1ccc(Br)c2cccnc12)c1ccc(Cn2cc(Cl)cn2)o1	-4%	5%	-5%	-16%	9%	12%	8%	3%
COc1ccc(OC)c(NC(=O)CCC(=O)Oc2ccc(C)cc2)c1	/	-1%	-1%	/	?	/	0%	/
O=C(NCC(c1ccco1)N1CCOCC1)C1CCCCC1 (stereo not given)	-8%[46.1 µM]	2%	6%	/	2%	/	/	2%
CN(C)CCOc1nc(-c2ccccc2)nc2c1oc1ccccc12	?	0%	5%	0.3%	-4%	-3%	-52%	?
COc1cccc(NC(=O)CN(C)C(=O)c2ccccc2CCc2ccccc2)c1	?	-26%	-16%	/	-17%	/	-34%	?
CN(C)CCCNC(=O)c1ccc(CN(c2ccccc2)S(C)(=O)=O)cc1	10%	-10%	-1%	3.2%	-2%	2%	6%	4%
CCN(CC)CCCNC(=O)C1CCC(CNS(=O)(=O)c2ccc(Cl)cc2)CC1 (stereo not given)	/	-15%	15%	/	1%	/	-2%	/
Cc1cnc(NC(=O)CSc2nc3ccccc3s2)s1	-4%	-17%	?	-5.1%	0%	-10%	-50%	-9%
Cc1ccc(S(=O)(=O)N2CCCCC2)cc1C(=O)N(C)CC(=O)Nc1cccc(F)c1	-9%	26%	9%	/	-2%	/	/	0%
COc1cc(/C=C2/SC(=O)N(CC(=O)N3CCCC3)C2=O)ccc1Oc1ccc([N+](=O)[O-])cn1	-4%	32µM*	7%	/	7%	/	?	4%
O=C1CCC(=O)N1c1ccc(CSc2nc3ccccc3[nH]2)cc1	?	3%	11%	4.7%	-2%	-4%	-13%	5%
Cn1c(SCc2ccccc2Cl)nc(=O)c2c1NC(=O)CC2c1cc(F)ccc1F (stereo not given)	4%[46.1 µM]	-9%	/	-0.5%	/	-1%	/	-9%[46.1 µM]
Cc1cccc(C)c1OCCNC(=O)CCC(=O)c1ccccc1	?	12%	0%	-3.6%	?	-5%	-6%	?
CC(=O)N1CCc2cc(S(=O)(=O)NC(C(=O)NC3CCCc4ccccc43)C(C)C)ccc21 (stereo not given)	-5%&11%	10%	3%	4.4%	1%	-13%	6%	-6%
FC(F)C(F)(F)C1=CC(c2cccs2)=NCCN1	-2%	-22%	-5%	-0.6%	4%	-7%	0%	0%
CCOc1ccc(-n2c(-c3ccc(Br)cc3)cc3c2CC(C)(C)CC3=O)cc1	-2%[46.1 µM]	?	/	0.7%	/	0%	/	?
O=C(c1cccc(C(F)(F)F)c1)C1CCCN(C(=O)CCCN2CCCC2=O)C1 (stereo not given)	/	-10%	-10%	/	-1%	/	6%	/
CCOc1ccc(N(CC(=O)NCCSCc2ccc(Cl)cc2)S(C)(=O)=O)cc1	/	-23%	6%	/	3%	/	0%	/
CC1=C(C(=O)Nc2ccc(C)cc2C)C(c2cc(Br)ccc2F)n2ncc(C(=O)Nc3ccc(C)cc3)c2N1 (stereo not given)	/	-2%	/	-0.7%	/	-29%	/	0%[46.1 µM]
CCOC(=O)c1cc(CC)sc1/N=C/C1=C(O)CCCC1=O	-2%	-10%	-15%	-4.0%	4%	?	15%	-3%
COCCNCCCOc1ccc(C)cc1Br	/	6%	-13%	/	1%	/	0%	/
CCOc1ccc(C(=O)Cc2ccccc2)cc1	44%	13%	-18%	/	/	/	/	17%
O=C(CC1CCCCC1)N1CCN(c2ccccn2)CC1	2%	/	7%	-1.5%	0%	0%	-4%	-20%
